# Screens as filed in PubChem.
# SARS PLP yeast – SARS-CoV PLP inhibition in yeast | S. cerevisiae expressing SARS-CoV PLpro, growth rescue; control for the full effect not named in the record | 330,000 tested, 0.19% active | AID 485353 | Potency, µM (doses to about 32.9 µM), inactives show at the top dose activity, positive = growth rescue; active means well fitted rising curve with a large enough effect; inconclusive means small, poorly fitted or top-dose-only effect; inactive means no such curve, though single readings can be large or run the other way; further: 0% is about no effect; nearly all actives have a fitted effect of over 55% in size; growth read by luminescence after 48 h
# Cruzain Triton – cruzain (T. cruzi) inhibition with detergent. purified cruzain, Z-FR-AMC fluorescence, 0.01% Triton. Potency, µM, without a hit: max response, negative = inhibition, actives largely listed as inhibitors. 200,000 tested, 0.43% active. AID 1478;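 further: plate controls were neutral wells for no effect and buffer without enzyme for full effect; nearly all actives have a fitted effect of over 40% in size; top concentration of the series not given in the record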
# Target sequence (P25779 123-467 limits assumed): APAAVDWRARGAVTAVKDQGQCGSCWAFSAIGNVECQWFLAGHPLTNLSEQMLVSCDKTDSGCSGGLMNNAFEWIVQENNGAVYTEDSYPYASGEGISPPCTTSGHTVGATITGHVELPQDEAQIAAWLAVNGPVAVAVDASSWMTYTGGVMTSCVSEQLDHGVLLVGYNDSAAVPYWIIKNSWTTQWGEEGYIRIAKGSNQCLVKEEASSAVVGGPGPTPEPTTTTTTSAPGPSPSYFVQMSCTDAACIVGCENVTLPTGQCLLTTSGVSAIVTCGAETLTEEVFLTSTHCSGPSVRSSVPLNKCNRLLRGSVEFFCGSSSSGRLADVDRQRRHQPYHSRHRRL
#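 Cruzain (1.5 nM) preincubated 15 min at RT with compound in 100 mM sodium acetate pH 5.5, 5 mM DTT, 0.01% Triton X-100. Reaction started with 2 uM Z-FR-AMC; AMC fluorescence (ex 360/em 450 nm) change over 60 s gave rate.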
# NS1 function inh – inhibitors of influenza NS1 protein function | S. cerevisiae slowed by influenza A NS1, growth recovery by OD600 | Potency, µM (series often up to 46.1 µM), for the others: at the top dose activity, positive = more growth | 270,000 tested, 0.4% active | AID 2326; active means well fitted rising curve with a large enough effect; inconclusive means small, poorly fitted or top-dose-only effect; inactive means no such curve, though single readings can be large or run the other way; further: nearly all actives have a fitted effect of over 50% in size
#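 S. cerevisiae expressing influenza A NS1, grown in glucose, washed, then diluted 1:100 into pH 6.0 -URA galactose medium with 23 nl compound. Growth recovery read as OD600; NS1-free strain serves as control.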
# Lassa entry inh – blocks Lassa virus binding to or entry into cells. Lassa virus pseudotype entry inhibition, cell reporter; control for the full effect not named in the record. 300,000 tested, 1.2% active. Potency, µM (doses to about 37.9 µM), for the others: at the top dose activity change, negative = inhibition, actives largely listed as inhibitors. AID 540256; active means well fitted inhibition curve with a large enough effect; inconclusive means small, poorly fitted or top-dose-only effect, or effect the other way; inactive means flat fitted curve, though single readings scatter; tested in HEK293 cells; further: on the % scale 0 is the no-effect control and ±100 the full control effect; nearly all actives have a fitted effect of over 50% in size; luciferase read-out
# Marburg entry inh – Marburg virus entry inhibition; AID 540276; Marburg virus pseudotyped entry inhibition, cell reporter; control for the full effect not named in the record; about a third of the inactives were read at about 46 µM; Potency, µM (top dose mostly 37.8 µM), for the others: at the top dose activity change, negative = inhibition, usual class: inhibitors; 300,000 tested, 1.8% active; active = well fitted inhibition curve with a large enough effect; inconclusive = small, poorly fitted or top-dose-only effect, or effect the other way; inactive = flat fitted curve, though single readings scatter; tested in HEK293 cells; about a fifth of its hits are not listed in these tables; further: on the % scale 0 is the no-effect control and ±100 the full control effect; luciferase read-out
# RE007 growth inh – less growth of the S. pombe RE007 Vpr strain; 360,000 tested, 0.21% active; S. pombe RE007 Vpr strain, BacTiter-Glo ATP luminescence, 24 h; control for the full effect not named in the record; Potency, µM (highest dose often 92.2 µM), for the others: at the highest dose activity change, negative = less growth; active = well fitted falling curve with a large enough effect; inconclusive = small, poorly fitted or top-dose-only effect; inactive = no such curve, though single readings can be large or run the other way;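 further: on the % scale 0 is the no-effect control and ±100 the full control effect; nearly all actives have a fitted effect of over 50% in size; the assay follows cell death caused by Vpr and the record does not say whether a fall means rescue or toxicity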
#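 Fission yeast strain RE007, carrying one chromosomally integrated HIV-1 vpr copy, was seeded at OD 0.01 in PMG+AL medium with 23 nL pinned compound. After 24 h at 30 °C and 99% humidity, viability was read by BacTiter-Glo luminescence.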
# Cruzain noTriton – blocks cruzain activity in detergent-free assay | purified cruzain, Z-FR-AMC fluorescence, no detergent | Potency, µM, for the others: max response, negative = inhibition, most hits filed as inhibitors | 200,000 tested, 2.3% active | AID 1476;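 further: plate controls were enzyme without inhibitor for no effect and buffer without enzyme for full effect; nearly all actives have a fitted effect of over 40% in size; top concentration of the series not given in the record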
#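 Purified cruzain at 1.5 nM, pre-incubated 15 min with compound at room temperature in 100 mM sodium acetate pH 5.5, 5 mM DTT, 0.00005% Triton X-100. Reaction started with 2 uM Z-FR-AMC; AMC fluorescence increase over 60 s gives rate.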
# 2A StopGo – FMDV 2A StopGo reporter, luciferase signal; AID 1159524; 410,000 tested, 1.2% active; Potency, µM (series often up to 57.9 µM), inactives show at the top dose signal change, negative = less light; human cells with a luciferase reporter of 2A StopGo recoding; control for the full effect not named in the record; active = well fitted falling curve with a large enough effect; inconclusive = small, poorly fitted or top-dose-only effect; inactive = no such curve, though single readings can be large or run the other way; tested in HEK293T cells; further: on the % scale 0 is the no-effect control and ±100 the full control effect; nearly all actives have a fitted effect of over 45% in size; luciferase light after 4 h
# Numbers without * were called inactive; u = inconclusive; x = not tested or not shown; & = joins results of further samples; [ ] = another dose, or the depositor's remark. Unless noted, the call rests on the fitted dose curve; in most records, active means well fitted curve in the direction sought with a large enough effect; inconclusive means small, poorly fitted or top-dose-only effect, or another doubt; inactive means no such curve, though single readings can be large; an effect the other way counts as inactive or inconclusive. Potency means the concentration at half of the fitted maximal effect.
SMILES	Cruzain noTriton	Marburg entry inh	2A StopGo	NS1 function inh	SARS PLP yeast	RE007 growth inh	Lassa entry inh	Cruzain Triton
CCOC(=O)c1ccc(S(=O)(=O)N2CCN(C)CC2)cc1	-1%	16%	x	1%	-3%	-5%	21%	8.1%
COc1ccc(NC(=O)CSCc2ccc(C)cc2)cc1	x	-1%[46.1 µM]	18%	x	-1%	-17%	u	x
Oc1cccc(-c2nc3ncccn3c2Nc2cccc(C(F)(F)F)c2)c1	-4%	10%[46.1 µM]	-2%	x	x	x	-16%[46.1 µM]	-15%
CCc1ccc(-n2nnnc2SCC(=O)NNC(=O)c2ccco2)cc1	-7%	u	x	0%	4%	3%	12%	1.9%
COc1ccccc1N(CC(=O)Nc1ccc2c(c1)OCO2)S(=O)(=O)c1ccccc1	5%	u	4%	u	-1%	-23%	-20%	-2.2%
CCOc1ccc(N2C(=O)CSC2=S)cc1	x	x	-7%	-147%	21%	4%	x	x
Cn1c(NC(=O)c2ccc(Cl)cc2)cc(=O)n(C)c1=O	x	6%[46.1 µM]	2%	x	1%	-9%	-20%[46.1 µM]	x
COc1ccc(-c2cc(=O)c3ccccc3s2)cc1	3%	u	x	-95%	-14%	u	-10%	-7.3%
CCOC(=O)N1CCN(C(=O)C2CC(c3cc(OC)ccc3OC)=NO2)CC1 (centres undefined)	1%	6%	12%	2%	-10%	-1%	0%	4.5%
Cc1nc(Nc2ccccc2)[nH]c(=O)c1CCC(C)C	-26%	u	-14%	-6%	-7%	12%[3.69 µM]	2%	-7.4%
Cc1cccc(Cn2nnc(C(=O)Nc3cc(C)ccc3C)c2N)c1	-1%	18%[46.1 µM]	-21%	x	x	x	4%[46.1 µM]	-5.9%
Cc1cccc(C(=O)OC(C)CN2CCCC2)c1 (centres undefined)	x	x	10%	0%	-3%	0%	x	x
N#Cc1ccccc1CCN1C(=O)c2ccccc2C1=O	x	1%[46.1 µM]	22%	3%	-2%	8%	3%[46.1 µM]	x
CNc1cnn(-c2ccccc2)c(=O)c1Cl	7%	3%	1%	7%	9%	-15%	17%	7.0%
COc1cccc(C2=NOC(C(=O)NC(C)(C)C)C2)c1 (centres undefined)	-2%	8%	10%	-19%	-9%	19%	0%	-0.1%
CCOC(=O)c1c(C)[nH]c(C)c1C(=O)COC(=O)c1ccc(O)cc1	x	u	-9%	x	0%	-2%	5%	x
CC1CN(C(=O)CCC(=O)N2CCC3(CC2)OCCO3)c2cc(Cl)ccc2O1 (centres undefined)	x	-3%[46.1 µM]	-10%	-18%	4%	-7%	u	x
O=C(COC(=O)c1cc([N+](=O)[O-])ccc1N1CCOCC1)NC1CCCCC1	x	u	-8%	x	-1%	34%	4%	x
CC(=O)c1ccc(NS(=O)(=O)c2ccc(Br)s2)cc1	-7%	-3%[46.1 µM]	35%[activator]	x	x	x	-13%[46.1 µM]	-9.4%
Cc1nn(-c2ccccc2)c(C)c1CNC(=O)c1ccc(S(=O)(=O)NCc2ccco2)cc1	x	-1%[46.1 µM]	28%	x	1%	4%	-15%[46.1 µM]	x
Cc1c(Cl)cnn1CC(=O)NC1C(=O)N2C(C(=O)O)=C(CSc3nnnn3C)CSC12 (centres undefined)	x	-14%[46.1 µM]	-5%	x	1%	3%	-12%[46.1 µM]	x
CCn1cc(C(=O)Nc2ccc(OC)c(S(=O)(=O)N3CCCCC3)c2)c(=O)c2ccc(C)nc21	-1%	4%	5%	5%	-2%	0%	5%	0.5%
COc1cccc(C(=O)N/N=C(/c2ccccc2)c2ccccn2)c1	-5%	u	u	-14%	-36%	-16%	u	2.9%
COc1ccc(-c2nn(-c3ccccc3)cc2C(=O)Nc2nccs2)cc1	u	u	u	12%	u	0%	-20%	-2.2%
Nc1ccc2c(c1)C(=NO)c1ccccc1-2	x	u	39%[activator]	x	x	-6%	22%	x
CC(C)(C)c1ccc(S(=O)(=O)NCC(=O)Nc2ccc(-c3nc4ccccc4s3)cc2)cc1	u	u	4%	6%	1%	11%	-14%	2.3%
Cc1ccc(S(=O)(=O)N/N=C(\c2ccccc2)C2CC2)cc1	x	-19%[46.1 µM]	20%	-6%	-3%	3%	17%[46.1 µM]	x
C[C@]12CCC3C(CC[C@H]4C[C@@H](O)CC[C@]34C)C1C[C@@H](O)[C@H]2O (some centres undefined)	x	14%[46.1 µM]	-2%	x	10%	4%	15%[46.1 µM]	x
CC(=O)Nc1ccc(OC(=O)Oc2ccc(NC(C)=O)cc2)cc1	x	x	43%[activator]	-1%	-1%	0%	x	x
CC(Oc1ccccc1)c1nnc(SCC(=O)NC2CC2)n1C (centres undefined)	x	u	9%	12%	10%	-1%	-1%	x
CCCN1CNC(=S)N(c2ccc(C(=O)OCC)cc2)C1	-5%	u	-17%	7%	5%	-18%	28%	-0.6%
Nc1c(Br)cc2c([nH]c(=O)c3ccccc32)c1Br	x	-2%	-15%	x	x	-23%	-7%[46.1 µM]	x
CC(C)OC(=O)c1c(NS(=O)(=O)c2ccccc2)sc2c1CCCC2	-20%	-7%	-11%	-22%	-20%	-17%	2%	-8.4%
Cc1ccc(NC(=O)CSc2nc3c(c(=O)[nH]2)CN(Cc2ccc(F)cc2)CC3)cc1C	25%	u	-11%	-2%	7%	-7%	-1%	0.7%
CCOC(=O)C/C(N)=N/N(C)c1ncc(C(F)(F)F)cc1Cl	x	u	-2%	17%	0%	-1%	7%	x
CCOC(=O)c1cccc(NC(=O)CN2C(=O)CC(C)(C)Sc3ccccc32)c1	12%	-18%[46.1 µM]	-20%	x	x	x	x	-11%
O=S(=O)(c1ccccc1)N1CCN(Cc2ccc(Cl)cc2)CC1	x	x	u	-22%	-1%	1%	x	x
CCOc1ccc(N(CC)C(=O)COc2cc(=O)n(C)c3ccccc23)cc1	17%	x	-9%	u	3%	-4%	x	-1.4%
O=C(Cn1cnc([N+](=O)[O-])c1)Nc1ccccc1C(F)(F)F	x	16%[46.1 µM]	-2%	8%	0%	3%	5%[46.1 µM]	x
Cc1ccc(C(=O)N(c2ccccc2)C2CC(C)N(C(=O)c3ccco3)c3ccccc32)cc1 (centres undefined)	14%	u	-9%	4%	-1%	-5%	-24%	-1.4%
CCc1ccc(CNCCNCC(C)O)cc1 (centres undefined)	4%	-29%	4%	9%	-3%	-11%	19%[14.3 µM]	3.4%
COc1ccc(S(=O)(=O)N2c3cc(Cl)ccc3Oc3nc4ccccc4nc32)cc1	u	-10%	69%[activator]	13%	8%	-20%	-8%	-2.2%
CC1=C(C(=O)Nc2ccc(C)cc2)C(c2ccc(C)o2)C2=C(CC(C)(C)CC2=O)N1 (centres undefined)	3%	-27%	13%	-10%	-4%	-7%	-32%	2.6%
O=c1[nH]c2cc3c(cc2cc1CN(Cc1cccs1)Cc1nnnn1Cc1ccco1)OCCO3	14%	u	-21%	14%	12%	0%	u	u
COc1ccc(NC(=O)CCn2c(=O)c3cccn3c3ccccc32)c(OC)c1	0%	x	-23%&-17%	3%	-6%	10%	-16%[46.1 µM]	-7.8%
Cc1ccc(NC(=O)Cn2cnc3c(=O)n(C)c(=O)n(C)c32)c(C)c1	-1%	-1%[46.1 µM]	-15%	-3%	-2%	-7%	-6%	-2.2%
Clc1ccccc1CN(Cc1ccco1)Cc1nnnn1C1CCCC1	-6%	-11%	-27%	-35%	x	-11%	-8%	-9.4%
O=C(O)CCc1nn2c3ccccc3nc2n(-c2ccccc2)c1=O	-7%	1%	4%	2%	3%	3%	5%	-0.5%
CCOc1ccc(NC2=CC(=O)CC(c3ccco3)C2)cc1 (centres undefined)	x	x	36%[activator]	2%	-1%	-19%	x	x
COc1ccc(CN(Cc2ccc(C(=O)O)cc2)C(=S)Nc2cccc(C)c2)cc1OC	x	-4%[46.1 µM]	-4%	x	1%	-19%	14%[46.1 µM]	x
COc1ccc(-c2noc(N3CCC(C(=O)Nc4cccc(C)c4C)CC3)n2)cc1	0%	x	-6%	x	x	x	22%[46.1 µM]	0.8%
O=S(=O)(/C=C/c1ccccc1)c1ccccc1	-1%	21%	25%	-8%	-13%	6%	-10%	-0.9%
OCCCc1cn(CC2CCCCC2)nn1	x	x	-3%	-2%	2%	-9%	x	x
CCOC(=O)c1ccccc1NC(=O)CN(c1cc(C(F)(F)F)ccc1Cl)S(C)(=O)=O	6%	u	u	x	x	x	4%[46.1 µM]	-13%
CCc1cccc(NC(=O)CCCn2nc(C)c3c(C)n(-c4ccccc4)nc3c2=O)c1	x	x	u	-5%	2%	1%	x	x
O=C(O)C1C2C=CC(C2)C1C(=O)NCCCn1ccnc1 (centres undefined)	-6%	-11%	-19%	9%	0%	-11%	10%	2.8%
O=C(CNC(=O)c1ccc(N2C(=O)c3ccccc3C2=O)cc1)OCC(=O)c1ccc(Cl)cc1	-20%	24%	u	5%	-4%	13%	6%	0.9%
CCN(CC)CCNC(=O)Cc1c(C(=O)O)n(CC)c2ccccc12	1%	28%	x	-5%	0%	4%	-9%	-9.0%
O=C(CNC(=O)c1ccc(Cl)cc1Cl)OCCOc1ccccc1	x	u	-9%	x	-11%	1%	30%	x
Cc1cccc2c1N(CCOc1ccc(C(C)(C)C)cc1)C(=O)C2=O	u	-20%	-6%	14%	-10%	2%	u	-7.1%

# Next entries:
SMILES	Cruzain noTriton	Marburg entry inh	2A StopGo	NS1 function inh	SARS PLP yeast	RE007 growth inh	Lassa entry inh	Cruzain Triton
Cc1nc2scc(C)n2c(=O)c1S(=O)(=O)NCC1CCN(Cc2ccc(Cl)cc2)CC1	x	x	-13%	-2%	-1%	8%	x	x
COc1cccc(/C=C/c2nc3ccccc3c(=O)n2-c2ccc(Cl)cc2)c1OC	4%	x	-25%	x	x	x	-11%[46.1 µM]	0.7%
COc1ccccc1Nc1ccc([N+](=O)[O-])cc1N	-3%	19%	-17%	-3%	-7%	9%	-2%	-11%
O=C(O)C1C2CCC(C2)C1C(=O)N1CCCC1 (centres undefined)	x	0%[46.1 µM]	-9%	10%	-7%	-24%	-1%[46.1 µM]	x
O=C(O)C1CCCCC1C(=O)N1CCN(S(=O)(=O)c2ccc(F)cc2)CC1 (centres undefined)	x	u	-20%	15%	9%	0%	16%	x
